Source: PubChem BioAssay
SARS PLpro yeast = qHTS of Yeast-based Assay for SARS-CoV PLP. actives 0.19% (n = 330,000). Potency, µM (top dose mostly 32.9 µM), for inactives: at the highest dose activity, positive = growth rescue. S. cerevisiae expressing SARS-CoV PLpro, growth rescue; control for the full effect not named in the record; note: 0% is about no effect; nearly all actives have a fitted effect of over 55% in size; growth read by luminescence after 48 h
RE007 growth inh = qHTS Assay for Inhibitors of the HIV-1 protein Vpr; AID 651644, 2012; S. pombe RE007 Vpr strain, BacTiter-Glo ATP luminescence, 24 h; control for the full effect not named in the record; Potency, µM (titrated, usually from 92.2 µM), for the others: top-dose activity change, negative = less growth; actives 0.21% (n = 360,000); active = well fitted falling curve with a large enough effect; inconclusive = small, poorly fitted or top-dose-only effect; inactive = no such curve, though single readings can be large or run the other way;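 note: % is set by controls: 0 for no effect and ±100 for the full control effect; nearly all actives have a fitted effect of over 50% in size; the assay follows cell death caused by Vpr and the record does not say whether a fall means rescue or toxicity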
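Fission yeast RE007 carrying one integrated HIV-1 vpr copy, seeded at OD 0.01 in PMG+AL medium with 23 nL pinned compound. Grown 24 h at 30 degrees; viability read by BacTiter-Glo luminescence after 5 min.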
Cruzain noTriton = qHTS Assay for Promiscuous and Specific Inhibitors of Cruzain (without detergent) | Cruzipain (Trypanosoma cruzi), P25779 | purified cruzain, Z-FR-AMC fluorescence, no detergent | Potency, µM, inactives show max response, negative = inhibition, most hits filed as inhibitors | actives 2.3% (n = 200,000) | AID 1476, 2009; active = well fitted curve in the direction sought with a large enough effect; inconclusive = small, poorly fitted or top-dose-only effect, or another doubt; inactive = no such curve, though single readings can be large; an effect the other way counts as inactive or inconclusive;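 note: plate controls were enzyme without inhibitor for no effect and buffer without enzyme for full effect; nearly all actives have a fitted effect of over 40% in size; top concentration of the series not given in the record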
Target sequence (P25779 123-467 limits assumed): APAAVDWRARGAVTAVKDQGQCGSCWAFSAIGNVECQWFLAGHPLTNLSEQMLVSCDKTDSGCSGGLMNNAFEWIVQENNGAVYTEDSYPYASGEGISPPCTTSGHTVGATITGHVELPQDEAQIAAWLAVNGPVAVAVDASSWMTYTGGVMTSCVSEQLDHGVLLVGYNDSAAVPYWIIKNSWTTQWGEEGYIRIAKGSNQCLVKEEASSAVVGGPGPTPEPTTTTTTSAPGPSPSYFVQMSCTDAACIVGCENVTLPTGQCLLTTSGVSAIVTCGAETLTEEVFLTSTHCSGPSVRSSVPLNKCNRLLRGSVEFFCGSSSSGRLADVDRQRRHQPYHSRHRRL
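Purified cruzain at 1.5 nM, pre-incubated 15 min with compound at room temperature in 100 mM sodium acetate pH 5.5, 5 mM DTT, 0.00005% Triton X-100. Reaction started with 2 uM Z-FR-AMC; AMC fluorescence increase over 60 s gives rate.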
MARV entry inh = qHTS for inhibitors of binding or entry into cells for Marburg Virus; Marburg virus pseudotyped entry inhibition, cell reporter; control for the full effect not named in the record; about a third of the inactives were read at about 46 µM; Potency, µM (doses to about 37.8 µM), for inactives: at the top dose activity change, negative = inhibition, most hits filed as inhibitors; actives 1.8% (n = 300,000); active = well fitted inhibition curve with a large enough effect; inconclusive = small, poorly fitted or top-dose-only effect, or effect the other way; inactive = flat fitted curve, though single readings scatter; tested in HEK293 cells; about a fifth of its hits are not listed in these tables; note: % is set by controls: 0 for no effect and ±100 for the full control effect; luciferase read-out
LASV entry inh = qHTS for Inhibitors of binding or entry into cells for Lassa Virus. Potency, µM (series often up to 37.9 µM), for the others: at the top dose activity change, negative = inhibition, most hits filed as inhibitors. actives 1.2% (n = 300,000). Lassa virus pseudotype entry inhibition, cell reporter; control for the full effect not named in the record; active means well fitted inhibition curve with a large enough effect; inconclusive means small, poorly fitted or top-dose-only effect, or effect the other way; inactive means flat fitted curve, though single readings scatter; tested in HEK293 cells; note: % is set by controls: 0 for no effect and ±100 for the full control effect; nearly all actives have a fitted effect of over 50% in size; luciferase read-out
StopGo reporter = High Throughput Screening for Foot and Mouth Disease Virus Antivirals | human cells with a luciferase reporter of 2A StopGo recoding; control for the full effect not named in the record | Potency, µM (top dose mostly 57.9 µM), for the others: top-dose signal change, negative = less light | actives 1.2% (n = 410,000); active = well fitted falling curve with a large enough effect; inconclusive = small, poorly fitted or top-dose-only effect; inactive = no such curve, though single readings can be large or run the other way; tested in HEK293T cells; note: % is set by controls: 0 for no effect and ±100 for the full control effect; nearly all actives have a fitted effect of over 45% in size; luciferase light after 4 h
NS1 function inh = qHTS Assay for Inhibitors of Influenza NS1 Protein Function; S. cerevisiae slowed by influenza A NS1, growth recovery by OD600; Potency, µM (titrated, usually from 46.1 µM), for inactives: at the top dose activity, positive = more growth; actives 0.4% (n = 270,000); note: actives are rising curves; nearly all actives have a fitted effect of over 50% in size
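Recovery from NS1-induced slow growth read by OD600 in budding yeast switched to galactose assay medium (pH 6.0, -URA) at 1:100 dilution. Compound 23 nl per well; the matching strain lacking NS1 serves as control.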
Cruzain Triton = qHTS Assay for Promiscuous and Specific Inhibitors of Cruzain (with detergent). AID 1478, 2009. purified cruzain, Z-FR-AMC fluorescence, 0.01% Triton. Potency, µM, for inactives: max response, negative = inhibition, usual class: inhibitors. actives 0.43% (n = 200,000). Cruzipain (Trypanosoma cruzi), P25779; active = well fitted curve in the direction sought with a large enough effect; inconclusive = small, poorly fitted or top-dose-only effect, or another doubt; inactive = no such curve, though single readings can be large; an effect the other way counts as inactive or inconclusive;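 note: plate controls were neutral wells for no effect and buffer without enzyme for full effect; nearly all actives have a fitted effect of over 40% in size; top concentration of the series not given in the record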
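Steps: dispense cruzain (1.5 nM final) in acetate buffer pH 5.5 with DTT and 0.01% Triton X-100; pin-transfer compounds; incubate 15 min RT; add Z-FR-AMC (2 uM final); read fluorescence every 30 s, using the 60 s intensity change.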
An asterisk follows results filed as active; ? = inconclusive; · = no result given; & = joins results of further samples; [ ] = remark or other dose. Unless noted, calls come from the whole dose curve; as a rule, active means well fitted rising curve with a large enough effect; inconclusive means small, poorly fitted or top-dose-only effect; inactive means no such curve, though single readings can be large or run the other way. Potency is the fitted concentration of half-maximal effect. Rows are unselected; overall some 4.7% were active at least once.

| compound | SARS PLpro yeast | RE007 growth inh | Cruzain noTriton | MARV entry inh | LASV entry inh | StopGo reporter | NS1 function inh | Cruzain Triton |
| --- | --- | --- | --- | --- | --- | --- | --- | --- |
| CN(C)CC1CCC/C(=C\c2ccc(OC(=O)c3ccc(Cl)cc3)cc2)C1=O (stereo not given) | · | 0% | · | ? | ? | ? | · | · |
| CC(C)n1nccc1NC(=O)Nc1ccccc1 | -1% | -18% | · | 11%[46.1 µM] | 21% | 47%[activator] | -15% | · |
| COc1cc(/C=C/c2ccc3cccc(OC)c3n2)c(OC(C)=O)c([N+](=O)[O-])c1 | -19% | -14% | ? | ? | ? | ? | -2% | -3.9% |
| CCOC(=O)C(CCCCOc1ccc([N+](=O)[O-])cc1)C(=O)OCC | -9% | 10% | 7% | 1% | -1% | -28% | -42% | 2.7% |
| COc1ccc(CN(C)CC(=O)Nc2cccc(S(N)(=O)=O)c2)c(OC)c1OC | 1% | 5% | · | · | · | -21% | -2% | · |
| Cc1c(Cl)cccc1NC(=O)CSc1nc2ncccc2o1 | · | · | -2% | · | -15%[46.1 µM] | 6% | · | -0.4% |
| COc1ccc(S(=O)(=O)Nc2ccccn2)cc1C | 1% | 2% | · | 10%[46.1 µM] | -20% | 24% | 0% | · |
| O=C(N/N=C/c1ccc(Cl)cc1)C1CC12CCC2 (stereo not given) | -2% | -7% | · | 18%[46.1 µM] | ? | 53%[activator] | · | · |
| Cc1nc(Nc2cccc(C(C)O)c2)c2nnn(Cc3ccc(F)cc3)c2n1 (stereo not given) | -2% | -9% | · | ? | ? | -28% | 1% | · |
| CCn1cc(C(=O)NCCCOC)c(=O)c2cc(S(=O)(=O)N(C)C)ccc21 | 9% | 14% | 6% | · | · | -19% | 3% | -7.0% |
| CC(C)N(Cc1ccccc1)C(=O)Cn1ncc2c3ccccc3n(Cc3ccccc3)c2c1=O | · | · | -1% | -9%[46.1 µM] | -24%[46.1 µM] | -24% | · | -7.0% |
| O=C(Nc1ccc2c(c1)C(=O)NC2=O)c1ccccc1 | 8% | -16% | · | · | · | 12% | 15% | · |
| CCCn1c(SCC(=O)N2CCCc3ccccc32)nnc1-c1ccco1 | 6% | 1% | 12% | -2% | -8% | -18% | -7% | 2.4% |
| Cc1c(CNC(=O)c2cnn3c2NC(c2ccccc2)CC3C(F)(F)F)cnn1C (stereo not given) | 0% | -6% | ? | -11% | -20% | · | -12% | -3.2% |
| O=C(Nc1ccc2oc(-c3ccccc3F)nc2c1)c1ccccc1F | -5% | -12% | · | ? | 21%[46.1 µM] | 9% | -22% | · |
| CCCN(/C=N/c1sc2c(c1C#N)CCCCC2)CCC | 14% | -17% | -8% | ? | -20% | 14% | -1% | -2.8% |
| CN(C)c1ccc(CNC2C3CC4CC(C3)CC2C4)cc1 (stereo not given) | 0% | -14% | -16% | 15µM* | ? | -6% | -6% | 1.6% |
| CCOc1ccccc1NS(=O)(=O)c1cc2c3c(c1)C(C)C(=O)N3CCC2 (stereo not given) | 2% | 29% | · | · | · | -12% | 12% | · |
| Cc1ccc(C(=O)NCCn2cc(SCC(=O)Nc3cc(C)on3)c3ccccc32)cc1 | 9% | 1% | 6% | -5% | · | -13% | -4% | 1.4% |
| O=C(CN1C(=O)/C(=C/c2cccc(Br)c2)SC1=S)NCCCN1CCOCC1 | 24% | -14% | · | -1% | -13% | 16% | 9% | · |
| COc1cc(NC(=S)NCCCN2CCOCC2)cc(OC)c1 | -18% | -5% | -4% | ? | -1% | 0% | 7% | 1.8% |
| CN(CC(=O)Nc1cccc(F)c1)C(=O)CCCNC(=O)c1ccc(Cl)cc1 | -3% | 0% | · | -2%[46.1 µM] | 16% | 15% | · | · |
| NS(=O)(=O)c1cccc(NC(=O)CCSc2ccccc2Cl)c1 | ? | 10% | 6% | ? | ? | 17% | 0% | -3.5% |
| COc1ccc(C)cc1S(=O)(=O)N1CCCC(C(=O)N2CCOCC2)C1 (stereo not given) | 16% | 10% | · | 12%[46.1 µM] | 21%[46.1 µM] | 0% | 7% | · |
| Cc1ccccc1/C=C/C(=O)N1CCOCC1 | -1% | 2% | · | 1%[46.1 µM] | 15%[46.1 µM] | 9% | 1% | · |
| COc1cccc(CN(C(=O)/C=C/c2ccco2)C2CCS(=O)(=O)C2)c1 (stereo not given) | -2% | 4% | · | 20%[46.1 µM] | 0%[46.1 µM] | 32%[activator] | 24% | · |
| Nc1ccc(N2CCN(c3ccc(Cl)c(Cl)c3)CC2)cc1 | -55% | -8% | -8% | 3% | -25% | 0% | ? | -9.5% |
| COc1ccc(NC(=O)C2CCCN(S(=O)(=O)c3ccc4[nH]c(=O)ccc4c3)C2)cc1 (stereo not given) | 0% | -8% | · | · | · | -25% | 14% | · |
| O=C(Nc1ccon1)c1ccc(Br)o1 | 2% | -6% | -1% | -7% | -2% | 26% | -2% | 0.3% |
| NS(=O)(=O)c1cccc(NC(=O)CCS(=O)(=O)c2ccc(Cl)cc2)c1 | 1% | 9% | · | · | · | -8% | -2% | · |
| CCCCc1ccc(-c2csc(/C(C#N)=C\c3ccc(C)o3)n2)cc1 | 4% | 10% | -29% | -4% | -2% | -7% | 5% | 0.6% |
| Cc1cc(C)cc(N(C(=O)c2cccs2)C2C=CS(=O)(=O)C2)c1 (stereo not given) | 2% | 2% | · | -40%[46.1 µM] | ? | -20% | · | · |
| O=CN1CCCN(Cc2nc(-c3cccc(Cl)c3)no2)CC1 | 0% | -2% | · | · | · | 24% | -3% | · |
| O=C(NCc1cccnc1)C1CCCN(S(=O)(=O)c2ccc(Cl)cc2)C1 (stereo not given) | 0% | -15% | -14% | 8% | 4% | -24% | -11% | 3.0% |
| CNC(C(=O)c1ccccc1)C(OC)c1cccc([N+](=O)[O-])c1 (stereo not given) | -3% | -8% | · | 0% | 15% | -22% | 1% | · |
| O=[N+]([O-])c1cc(C(F)(F)F)ccc1NC1CCN(Cc2ccccc2)CC1 | -4% | -17% | · | ? | -11% | 0% | -69% | · |
| Cc1c(C=C2C(=O)N(C)C(=O)N(C)C2=O)c(=O)n(-c2ccccc2)n1C | 15% | -6% | 1% | 0% | 0% | -7% | 20% | -2.5% |
| CN(CC(=O)Nc1ccc(F)cc1)C(=O)c1cc([N+](=O)[O-])ccc1N1CCOCC1 | -12% | -6% | · | 17% | 12% | -10% | · | · |
| O=S(=O)(NCc1ccco1)c1cnc(Cl)c(Br)c1 | -20% | -8% | -1% | ? | ? | 8% | -8% | -1.8% |
| Cc1cccc(/C=N/Nc2nncc3ccccc23)c1 | -7% | ? | · | ? | ? | -70% | · | · |
| C/C(=N\N1CCCCCC1)c1c(O)n(-c2ccc(Cl)cc2)c(=O)[nH]c1=O | 0% | -20% | · | 5%[46.1 µM] | ? | 0% | -1% | · |
| CC1CCN(C(=O)COc2cccc3c2CCN(C)C3=O)CC1 | 1% | 1% | · | -18%[46.1 µM] | 0% | 8% | · | · |
| CN1CCc2nc3ccc(Cl)cc3c(-c3ccccc3Cl)c2C1 | -14% | -1% | -1% | ? | -9% | 0% | -18% | -2.1% |
| COc1ccc(CC(=O)Nc2ncc([N+](=O)[O-])s2)cc1OC | 0% | 2% | · | 9%[46.1 µM] | 7% | 19% | 7% | · |
| O=S(=O)(c1ccc(N2CCOCC2)c(Cl)c1)N1CCOCC1 | 2% | 7% | · | 9%[46.1 µM] | 1%[46.1 µM] | -6% | -2% | · |

The closing four records of the part before open the next one.
| compound | SARS PLpro yeast | RE007 growth inh | Cruzain noTriton | MARV entry inh | LASV entry inh | StopGo reporter | NS1 function inh | Cruzain Triton |
| --- | --- | --- | --- | --- | --- | --- | --- | --- |
| CC1CCN(C(=O)COc2cccc3c2CCN(C)C3=O)CC1 | 1% | 1% | · | -18%[46.1 µM] | 0% | 8% | · | · |
| CN1CCc2nc3ccc(Cl)cc3c(-c3ccccc3Cl)c2C1 | -14% | -1% | -1% | ? | -9% | 0% | -18% | -2.1% |
| COc1ccc(CC(=O)Nc2ncc([N+](=O)[O-])s2)cc1OC | 0% | 2% | · | 9%[46.1 µM] | 7% | 19% | 7% | · |
| O=S(=O)(c1ccc(N2CCOCC2)c(Cl)c1)N1CCOCC1 | 2% | 7% | · | 9%[46.1 µM] | 1%[46.1 µM] | -6% | -2% | · |
| COC(=O)C1=CN(CC2CCCO2)C=C(C(=O)OC)C1c1ccccc1C(F)(F)F (stereo not given) | 4% | 16% | 22% | 7%[46.1 µM] | -14% | -21% | 5% | -13% |
| Cc1nn(CC(=O)N(C)Cc2ccc(F)cc2)c(C)c1[N+](=O)[O-] | 5% | 5% | 9% | ? | 25% | -13% | 16% | 4.3% |
| Cc1cc(C)c2c(-n3cccc3)c(C(=O)NCCCN3CCCCC3)sc2n1 | · | · | 6% | ? | 7%[46.1 µM] | -13% | · | -3.8% |
| CC(C)=NOc1nc(NC(=O)NS(=O)(=O)c2ccccc2Cl)nc(N(C)C)n1 | · | 3% | · | -5%[46.1 µM] | 15%[46.1 µM] | -18% | · | · |
| CCOC(=O)N1CCN(C(=O)C2CCC(CNS(=O)(=O)c3ccc(Cl)cc3)CC2)CC1 (stereo not given) | 1% | -11% | ? | -9%&-9% | -18% | -24% | -10% | 3.0% |
| CCOc1ccc(N(C(=O)/C=C/C(=O)Nc2cc(C)on2)C(C(=O)NC2CCCC2)c2ccccc2C)cc1 (stereo not given) | 2% | 20% | ? | · | · | ? | 13% | -2.1% |
